HSV augment – increases HSV replication in cells; HSV replication augmentation in cells, fold increase; maximum fold increase; actives 0.005% (n = 220,000); AID 1956;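 active = peak rise of 1.5-fold or more in the series; tested in PC3 cells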;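 also: first round at 10 µM; read as green reporter fluorescence; hits show the peak of a series up to 25 µM; 1 = signal of infected wells without compound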
RGS16-Gao – regulators of human RGS16-Galphao interaction. actives 0.38% (n = 220,000). O15492+P09471. AID 1441. binding response (% of control), % at 10 µM. bead-based flow cytometry RGS16-Galphao binding, fluorescence; actives lie on both sides;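 active = below 25% or above 175%, edge rows of some plates excepted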;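 also: Galphao activated by GDP with aluminum fluoride before binding; 100% = wells without compound and 0% = beads without RGS; some results beyond the cut were filed as inactive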
Target sequence (O15492 whole entry, looked up): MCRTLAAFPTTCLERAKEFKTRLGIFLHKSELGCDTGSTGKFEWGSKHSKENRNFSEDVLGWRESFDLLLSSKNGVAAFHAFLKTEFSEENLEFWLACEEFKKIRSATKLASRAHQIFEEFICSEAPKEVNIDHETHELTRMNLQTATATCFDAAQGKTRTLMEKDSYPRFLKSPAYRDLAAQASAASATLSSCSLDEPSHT
Target sequence (P09471 whole entry, looked up): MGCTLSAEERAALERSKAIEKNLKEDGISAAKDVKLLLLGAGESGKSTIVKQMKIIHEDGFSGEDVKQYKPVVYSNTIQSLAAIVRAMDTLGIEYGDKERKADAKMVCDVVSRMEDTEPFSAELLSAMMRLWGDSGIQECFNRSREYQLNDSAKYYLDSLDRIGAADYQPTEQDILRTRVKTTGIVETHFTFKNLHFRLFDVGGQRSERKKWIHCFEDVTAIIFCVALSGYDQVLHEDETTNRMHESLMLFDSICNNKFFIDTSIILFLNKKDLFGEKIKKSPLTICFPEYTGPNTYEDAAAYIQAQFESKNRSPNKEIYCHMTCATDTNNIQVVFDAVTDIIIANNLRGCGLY
GALR2 agonist – GALR2 (human) receptor agonism; O43603; GALR2-expressing cells, agonist activation read-out; activation, %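 (tested at 5 µM)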; actives 0.48% (n = 140,000); AID 803;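 active = above mean plus 3 SD of all compounds, about 5% in these data, not always enough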;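 also: 0% = vehicle buffer wells and 100% = reference agonist at full effect; tested in CHO reporter cells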
Target sequence (O43603 whole entry, looked up): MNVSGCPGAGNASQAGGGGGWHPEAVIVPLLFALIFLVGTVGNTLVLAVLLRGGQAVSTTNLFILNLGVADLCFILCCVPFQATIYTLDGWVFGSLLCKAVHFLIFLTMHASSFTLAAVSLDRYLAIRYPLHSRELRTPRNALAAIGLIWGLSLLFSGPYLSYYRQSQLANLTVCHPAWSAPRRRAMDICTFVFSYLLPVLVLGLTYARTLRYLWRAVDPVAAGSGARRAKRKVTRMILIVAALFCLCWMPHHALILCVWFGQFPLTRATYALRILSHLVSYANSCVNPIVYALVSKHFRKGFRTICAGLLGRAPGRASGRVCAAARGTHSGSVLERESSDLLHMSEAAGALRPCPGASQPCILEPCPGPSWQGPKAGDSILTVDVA
PKD1 inh – blocks activity of human protein kinase D1 | PKD1 kinase fluorescence polarization assay | inhibition, %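 (about 10 µM by stock and volumes)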 | actives 0.056% (n = 200,000);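 active = inhibition of 50% or more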;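 also: controls were vehicle for no effect and a reference inhibitor for full effect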
INS promoter inh – TRM-6 insulin promoter activity inhibition. TRM-6 cells (human fetal islet line), insulin promoter-eGFP reporter, imaging; reporter expression induced with tamoxifen. inhibition, % at 2 µM. actives 0.9% (n = 130,000). AID 1273;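 active = inhibition above the mean plus 3 SD, with well images judged a real hit on visual review, cut at about 60% in these data, passing the limit was not always enough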
INS promoter inh cell count – second read-out of INS promoter inh, no call of its own (marks repeat the call); normalized cell count, %; measured here: cell count, toxicity; reference of the scale not given here;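 cells exposed to compound for 48 h; stained nuclei by imaging scaled within each plate; lower means fewer cells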
HSV augment primary fold – recorded beside HSV augment, whose call it bears; fold increase; compound at 10 µM; measured here: primary screen fold increase 10 uM; tested in PC3 cells;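 GFP signal in the first replicate; 1 = infected wells without compound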
Starred values were filed as active, the others as inactive.

Cc1cc(C)cc(NC(=S)NCc2ccc(F)cc2)c1 was read as HSV augment inactive, RGS16-Gao 99.0, GALR2 agonist -0.8, PKD1 inh 3.6, INS promoter inh -17.6, INS promoter inh cell count 48.0 and HSV augment primary fold 1.08.
`COc1cc(NC(=S)N(C)C)c(OC)cc1Cl` gave HSV augment inactive, RGS16-Gao 97.8 and HSV augment primary fold 1.03.
`CC(C)CSc1nc(N2CCOCC2)c2c(c1C#N)CC(C)(C)SC2` gave HSV augment inactive, RGS16-Gao 98.2, GALR2 agonist 2.0, PKD1 inh -2.8, INS promoter inh -64.3, INS promoter inh cell count 104.5 and HSV augment primary fold 0.95.
Screening CCOc1ccc(N2C(=O)C(Cl)=C(Nc3ccccc3O)C2=O)cc1 returned HSV augment inactive, RGS16-Gao 77.0, GALR2 agonist -2.0, PKD1 inh -3.3, INS promoter inh -57.1, INS promoter inh cell count 167.7 and HSV augment primary fold 1.15.
O=C(CCC(=O)N1CCN(c2ccccn2)CC1)Nc1nnc(C2CCCCC2)s1 was read as HSV augment inactive, RGS16-Gao 106.5, GALR2 agonist -1.3, PKD1 inh 8.4, INS promoter inh 18.5, INS promoter inh cell count 87.1 and HSV augment primary fold 0.9.
N#Cc1c(N)oc(-c2ccco2)c1-c1ccco1 was read as HSV augment inactive, RGS16-Gao 83.9, GALR2 agonist -0.5, PKD1 inh -6.9 and HSV augment primary fold 1.16.
For COc1ccccc1OCc1ccc(C(=O)NCc2cccnc2)o1 the results were HSV augment inactive, RGS16-Gao 108.5, GALR2 agonist -1.7, PKD1 inh -3.5, INS promoter inh 20.0, INS promoter inh cell count 90.3 and HSV augment primary fold 1.17.
For CC1(C)CC(=O)c2c(oc3ccc(NS(=O)(=O)c4cccc5cccnc45)cc23)C1 the results were HSV augment inactive, RGS16-Gao 102.0, PKD1 inh 2.1 and HSV augment primary fold 0.99.
Screening CCc1ccc2nc3n[nH]c(N)c3cc2c1 returned HSV augment inactive, RGS16-Gao 104.9, GALR2 agonist -0.4, PKD1 inh 0.4, INS promoter inh 6.5, INS promoter inh cell count 89.2 and HSV augment primary fold 0.85.
Screening Cc1nn(-c2cc(Cl)ccc2Cl)c(C)c1C(=O)O returned HSV augment inactive, RGS16-Gao 101.1, PKD1 inh -4.7 and HSV augment primary fold 1.01.
COc1ccc(Nc2nnc(C)c3ccccc23)cc1C(N)=O was read as HSV augment inactive, RGS16-Gao 99.4, GALR2 agonist -2.7, PKD1 inh -3.1 and HSV augment primary fold 0.997.
For O=C(O)C(O)c1ccccc1 (stereo not given) the results were HSV augment inactive, RGS16-Gao 102.8 and HSV augment primary fold 0.68.
`COc1cc(/C=C2\C(=O)NN(c3ccccc3)C2=O)cc([N+](=O)[O-])c1O` gave HSV augment inactive, RGS16-Gao 102.5, PKD1 inh -1.4, INS promoter inh 33.3, INS promoter inh cell count 111.3 and HSV augment primary fold 0.97.
Screening Cc1ccc(N2CCN(c3ccc(NCc4nc5ccccc5n4C)cc3)CC2)cc1 returned HSV augment inactive, RGS16-Gao 98.3, GALR2 agonist 2.1, PKD1 inh 4.4, INS promoter inh 11.1, INS promoter inh cell count 124.8 and HSV augment primary fold 1.11.
`CCN(c1ccccc1)S(=O)(=O)c1ccc(OC)c(N=N/C(C(=O)Nc2ccccc2)=C(/C)O)c1` gave HSV augment inactive, RGS16-Gao 107.9, PKD1 inh -0.4, INS promoter inh 50.0, INS promoter inh cell count 165.1 and HSV augment primary fold 0.86.
For CCc1ccc(OCC(=O)NNC(=O)CSc2nnc(-c3ccc(C)cc3)n2C)cc1 the results were HSV augment inactive, RGS16-Gao 97.6, GALR2 agonist -0.2, PKD1 inh -0.3 and HSV augment primary fold 1.01.
For O=C(Nc1ccc(S(=O)(=O)N2CCOCC2)cc1)C1COc2ccccc2O1 (stereo not given) the results were HSV augment inactive, RGS16-Gao 96.6, GALR2 agonist -2.3, PKD1 inh -3.7 and HSV augment primary fold 0.95.
N#Cc1c(NC(=O)c2ccc(-c3ccccc3[N+](=O)[O-])o2)sc2c1CCCC2 was read as HSV augment inactive, RGS16-Gao 101.6, GALR2 agonist -1.9, PKD1 inh 3.0, INS promoter inh -23.3, INS promoter inh cell count 118.1 and HSV augment primary fold 0.71.
`CC(C)(C)c1nc(SCC(=O)Nc2ccc3c(c2)OCCO3)c2ccccc2n1` gave RGS16-Gao 84.0, GALR2 agonist -1.4, PKD1 inh 7.1, INS promoter inh 20.0 and INS promoter inh cell count 84.2.
Screening CS(=O)(=O)N(CC(=O)Nc1ccc(S(=O)(=O)N2CCCC2)cc1)c1ccccc1 returned HSV augment inactive, RGS16-Gao 116.2, PKD1 inh -3.0 and HSV augment primary fold 0.89.
For CCOC(=O)COc1ccc(C(=O)Nc2cccc(Cl)c2C)cc1 the results were HSV augment inactive, RGS16-Gao 99.6, PKD1 inh 2.7, INS promoter inh -11.1, INS promoter inh cell count 136.8 and HSV augment primary fold 0.84.
`CN1OC(COC(=O)c2ccc(Cl)cc2)CC1c1ccccc1` (stereo not given) gave HSV augment inactive, RGS16-Gao 100.0, GALR2 agonist -1.9, PKD1 inh 15.6, INS promoter inh 12.9, INS promoter inh cell count 136.3 and HSV augment primary fold 1.21.
`NC(=O)c1ccccc1NC(=O)c1ccccc1Cl` gave HSV augment inactive, RGS16-Gao 100.0 and HSV augment primary fold 1.01.
CCCCc1ccc(S(N)(=O)=O)cc1 was read as HSV augment inactive, RGS16-Gao 99.9, PKD1 inh 0.4 and HSV augment primary fold 0.94.
`Cc1ccc2nc(-c3cccnc3)cc(C(=O)Nc3ccc(F)cc3C)c2c1` gave HSV augment inactive, RGS16-Gao 105.0, PKD1 inh -8.1 and HSV augment primary fold 0.87.
`Cc1cc(N)ccc1N1CCCC1` gave HSV augment inactive, RGS16-Gao 39.1, GALR2 agonist -1.5, PKD1 inh -14.5, INS promoter inh -6.7, INS promoter inh cell count 62.2 and HSV augment primary fold 0.97.
For CCCNC(=O)NC(=O)CSc1nnc(-c2ccncc2)n1CC the results were HSV augment inactive, RGS16-Gao 108.2, GALR2 agonist -1.4, PKD1 inh -3.9, INS promoter inh 42.4, INS promoter inh cell count 97.8 and HSV augment primary fold 0.82.
For O=C(Cc1csc(N2CCOCC2)n1)N/N=C/c1ccc(Cl)cc1Cl the results were HSV augment inactive, RGS16-Gao 99.4, GALR2 agonist -0.5, PKD1 inh -2.8, INS promoter inh 13.8, INS promoter inh cell count 117.3 and HSV augment primary fold 0.9.
Cc1cc(NC(=O)CSc2nnc(-c3ccncc3)n2C)n(-c2ccccc2)n1 was read as HSV augment inactive, RGS16-Gao 102.6 and HSV augment primary fold 1.04.
COc1ccc(NC(=O)c2cc(-c3ccc(C)o3)nc3ccccc23)cc1OC was read as HSV augment inactive, RGS16-Gao 93.4, GALR2 agonist -2.0, PKD1 inh -7.7, INS promoter inh -22.9, INS promoter inh cell count 53.6 and HSV augment primary fold 0.81.
Screening Cc1cc2[nH]ncc2cc1NC(N)=S returned HSV augment inactive, RGS16-Gao 100.5, PKD1 inh 0.3 and HSV augment primary fold 0.82.
O=C(NCc1ccccn1)C(=O)N/N=C/c1ccc2c(c1)OCO2 was read as HSV augment inactive, RGS16-Gao 102.8, PKD1 inh 6.0 and HSV augment primary fold 1.02.
For CCc1ccccc1NC(=S)N1CCNC(=O)C1CC(=O)OC (stereo not given) the results were HSV augment inactive, RGS16-Gao 100.1, PKD1 inh 1.6 and HSV augment primary fold 1.
Screening COc1cccc(NCc2cc(=O)oc3cc(-c4ccccc4)c(O)cc23)c1 returned HSV augment inactive, RGS16-Gao 56.2, GALR2 agonist -0.9, PKD1 inh -8.4, INS promoter inh -3.2, INS promoter inh cell count 79.2 and HSV augment primary fold 1.16.
Screening O=C(NCCSc1ccccc1)c1ccc(Br)cc1 returned HSV augment inactive, RGS16-Gao 102.1, GALR2 agonist -1.6, PKD1 inh -2.8, INS promoter inh 3.3, INS promoter inh cell count 83.1 and HSV augment primary fold 0.92.
`O=C(CCc1ccccc1)Nc1nn[nH]n1` gave HSV augment inactive, RGS16-Gao 90.8, GALR2 agonist -0.7, PKD1 inh -6.9, INS promoter inh 26.7, INS promoter inh cell count 88.2 and HSV augment primary fold 0.9.
`O=C(C/C=N\OCc1ccc([N+](=O)[O-])cc1)Nc1ccc(F)cc1F` gave HSV augment inactive, RGS16-Gao 99.7, PKD1 inh -2.6, INS promoter inh 5.6, INS promoter inh cell count 134.4 and HSV augment primary fold 1.12.
COC(=O)c1[nH]c2cccc(OC)c2c1NC(=O)CCN1CCSCC1 was read as HSV augment inactive, RGS16-Gao 109.7 and HSV augment primary fold 0.87.
COCCNC(=O)c1cc2cc(Br)cc(Br)c2oc1=O was read as HSV augment inactive, RGS16-Gao 103.1, PKD1 inh -1.1, INS promoter inh 14.3, INS promoter inh cell count 115.7 and HSV augment primary fold 1.
`O=S(=O)(c1ccc2oc3ccccc3c2c1)N1CCOCC1` gave HSV augment inactive, RGS16-Gao 99.6, GALR2 agonist 1.8, PKD1 inh -1.3, INS promoter inh 8.3, INS promoter inh cell count 91.8 and HSV augment primary fold 0.92.
`COc1ccc(Nc2ncnc3nc[nH]c23)cc1OC` gave HSV augment inactive, RGS16-Gao 97.8, GALR2 agonist -2.2, PKD1 inh -4.0 and HSV augment primary fold 0.85.
`O=C1CC(c2ccccc2)CC(=O)C1CS(=O)(=O)c1ccccc1` (stereo not given) gave HSV augment inactive, RGS16-Gao 100.5, PKD1 inh -6.5, INS promoter inh 18.2, INS promoter inh cell count 142.1 and HSV augment primary fold 0.84.
`COc1cc(OC)nc(Oc2cc(/C=N/O)ccc2OC)n1` gave HSV augment inactive, RGS16-Gao 99.2, PKD1 inh -2.8 and HSV augment primary fold 0.92.
`Nc1ccc2c(C(F)(F)F)cc(C(F)(F)F)nc2n1` gave HSV augment inactive, RGS16-Gao 102.4, PKD1 inh -9.0 and HSV augment primary fold 1.1.
For COc1ccccc1Nc1nc(NCCCN(C)C)nc(N)c1[N+](=O)[O-] the results were HSV augment inactive, RGS16-Gao 106.0 and HSV augment primary fold 0.78.
Screening O=C(c1ccccc1)c1ccc(N2CCOCC2)c(NC(=O)c2ccco2)c1 returned HSV augment inactive, RGS16-Gao 101.6, GALR2 agonist 0.6, PKD1 inh -3.3, INS promoter inh 2.9, INS promoter inh cell count 117.3 and HSV augment primary fold 0.81.
Screening O=C(NCc1ccccc1)c1ccc(CNc2c(N3CCCC3)c(=O)c2=O)cc1 returned HSV augment inactive, RGS16-Gao 102.1 and HSV augment primary fold 0.99.
`COc1ccc(C2NCCc3c2[nH]c2ccccc32)cc1CN1CCc2cc(OC)c(OC)cc2C1C` (stereo not given) gave HSV augment inactive, RGS16-Gao 101.8 and HSV augment primary fold 0.77.
CC1CCN(c2ccc(C=O)o2)CC1 was read as HSV augment inactive, RGS16-Gao 104.8, PKD1 inh -3.0, INS promoter inh -25.0, INS promoter inh cell count 77.0 and HSV augment primary fold 1.01.
For COc1cccc(CNc2ccc(S(N)(=O)=O)cc2)c1OC the results were HSV augment inactive, RGS16-Gao 103.2, GALR2 agonist -0.7, PKD1 inh -1.1, INS promoter inh 62.5, INS promoter inh cell count 75.7 and HSV augment primary fold 1.03.
CCNc1nc(SC(C)C(=O)Nc2ccccc2)nc(N2CCOCC2)n1 (stereo not given) was read as HSV augment inactive, RGS16-Gao 92.9, GALR2 agonist 1.9, PKD1 inh -9.3, INS promoter inh -64.5, INS promoter inh cell count 118.4 and HSV augment primary fold 1.
For O=S(=O)(c1ccc(-c2ccccn2)s1)N1CCC2(CC1)OCCO2 the results were HSV augment inactive, RGS16-Gao 97.9 and HSV augment primary fold 1.
Cc1ccc(/C=N/NC(=O)COc2ccccc2-c2ccccc2)cc1 was read as HSV augment inactive, RGS16-Gao 51.9, GALR2 agonist -0.2, PKD1 inh 0.2, INS promoter inh -212.5, INS promoter inh cell count 1.1 and HSV augment primary fold 0.66.

Sorted by formula weight (smallest number first): some entries from above
`Nc1ccc2c(C(F)(F)F)cc(C(F)(F)F)nc2n1` gave HSV augment inactive, RGS16-Gao 102.4, PKD1 inh -9.0 and HSV augment primary fold 1.1.
For COc1cccc(CNc2ccc(S(N)(=O)=O)cc2)c1OC the results were HSV augment inactive, RGS16-Gao 103.2, GALR2 agonist -0.7, PKD1 inh -1.1, INS promoter inh 62.5, INS promoter inh cell count 75.7 and HSV augment primary fold 1.03.
CCNc1nc(SC(C)C(=O)Nc2ccccc2)nc(N2CCOCC2)n1 (stereo not given) was read as HSV augment inactive, RGS16-Gao 92.9, GALR2 agonist 1.9, PKD1 inh -9.3, INS promoter inh -64.5, INS promoter inh cell count 118.4 and HSV augment primary fold 1.
Screening O=C(NCc1ccccc1)c1ccc(CNc2c(N3CCCC3)c(=O)c2=O)cc1 returned HSV augment inactive, RGS16-Gao 102.1 and HSV augment primary fold 0.99.
`COc1ccc(C2NCCc3c2[nH]c2ccccc32)cc1CN1CCc2cc(OC)c(OC)cc2C1C` (stereo not given) gave HSV augment inactive, RGS16-Gao 101.8 and HSV augment primary fold 0.77.
